Compound activity: PubChem, National Center for Advancing Translational Sciences (NCATS)
TRPV1 PAM: enhances activation of the human vanilloid receptor TRPV1 | Q8NER1 | TRPV1-expressing cells, Fluo-8 calcium influx, capsaicin EC20 potentiation; host cell line not named in the record; control for the full effect not named in the record | potentiation, % at 8.33 µM | actives 0.02% (n = 320,000) | AID 540277; active means potentiation above 80%; inconclusive means 30% to 80%; inactive means below 30%; note: 0% is about no effect
Target sequence (Q8NER1 whole entry, looked up): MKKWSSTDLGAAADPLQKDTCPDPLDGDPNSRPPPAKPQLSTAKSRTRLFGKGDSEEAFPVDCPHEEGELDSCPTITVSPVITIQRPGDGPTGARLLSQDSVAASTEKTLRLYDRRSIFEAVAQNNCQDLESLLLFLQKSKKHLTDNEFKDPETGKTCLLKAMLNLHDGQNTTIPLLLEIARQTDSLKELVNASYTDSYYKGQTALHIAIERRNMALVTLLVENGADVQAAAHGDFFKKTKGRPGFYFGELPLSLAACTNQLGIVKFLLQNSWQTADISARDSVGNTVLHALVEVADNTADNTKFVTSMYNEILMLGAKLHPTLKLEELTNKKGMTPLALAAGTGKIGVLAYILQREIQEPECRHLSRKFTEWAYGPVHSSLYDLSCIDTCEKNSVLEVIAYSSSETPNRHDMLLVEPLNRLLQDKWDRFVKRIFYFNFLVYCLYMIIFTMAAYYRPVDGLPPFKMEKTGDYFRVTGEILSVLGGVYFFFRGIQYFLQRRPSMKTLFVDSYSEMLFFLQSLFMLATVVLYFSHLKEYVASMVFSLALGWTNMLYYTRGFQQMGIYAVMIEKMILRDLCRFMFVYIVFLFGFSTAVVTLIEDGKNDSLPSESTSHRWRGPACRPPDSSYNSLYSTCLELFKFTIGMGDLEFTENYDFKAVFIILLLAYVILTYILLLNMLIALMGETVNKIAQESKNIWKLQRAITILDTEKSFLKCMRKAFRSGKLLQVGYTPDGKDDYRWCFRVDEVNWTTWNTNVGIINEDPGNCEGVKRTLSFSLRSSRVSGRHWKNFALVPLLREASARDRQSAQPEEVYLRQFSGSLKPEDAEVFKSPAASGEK
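Cells expressing TRPV1 were dye-loaded with Fluo-8 and read kinetically: 10 s baseline, 3 min after compound (agonist portion), then 2 min after EC20 capsaicin (allosteric enhancer portion). Calcium-bound dye fluorescence at 480/520 nm.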
Menin MLL FP FL: inhibitors of human menin-MLL interaction, wild-type MLL peptide | FP activity change, % at 61.4 µM | Fluorescence polarization, fluorescein-MLL peptide displacement from menin | AID 1766 | 290,000 tested, under 10 active; inconclusive = falling polarisation curve, or a change in total fluorescence; inactive = total fluorescence flat and polarisation flat or rising; no compound was filed as active; the % refers to the polarisation; negative = inhibition;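 note: % of control where 0% means no effect; inhibitors lower the polarisation; unlabelled MLL peptide was the positive control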
gsp antagonist: antagonists of gsp mutant (McCune-Albright syndrome); gsp-mutant cells, cAMP HTRF, 30 min; control for the full effect not named in the record; Potency, µM (titrated, usually from 76.9 µM), inactives show top-dose activity change, negative = inhibition, usual class: inhibitors; actives 0.4% (n = 340,000); AID 624288; active = falling curve of any shape with a large fitted effect; inconclusive = falling curve, mostly with a smaller effect; inactive = flat or rising curve; cell line not stated here;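 note: intracellular cAMP measured with PDE inhibitor Ro 20-1724 present during compound exposure; potency is the fitted concentration of half-maximal effect; % is set by controls: 0 for no effect and ±100 for the full control effect; nearly all actives have a fitted effect of over 65% in size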
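Measurement of cellular cAMP by homogeneous time-resolved fluorescence following a 30 min compound exposure at 37C. The PDE inhibitor […] was present throughout; the assay buffer was DPBS with 0.05% BSA and 0.005% Tween 20.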
Sfp inh: blocks B. subtilis Sfp PPTase activity; Potency, µM, without a hit: max response, negative = inhibition, hits mostly inhibitors; actives 3.5% (n = 310,000); Biochemical Sfp PPTase activity, qHTS; AID 1490; active = well fitted inhibition curve with a large enough effect; inconclusive = small, poorly fitted or top-dose-only effect, or another doubt; inactive = no such curve, though single readings can be large or run the other way;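 note: the enzyme is Sfp with the accession as filed and its product quenches rhodamine fluorescence; potency is the fitted concentration of half-maximal effect; 0% = enzyme reaction without inhibitor and -100% = no enzyme wells; top concentration of the series not given in the record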
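With Hepes-Na pH 7.6 buffer containing 10 mM MgCl2, Sfp (15 nM) modified BHQ-2-YbbR (12.5 uM) using rhodamine-CoA (5 uM). Two reads 30 minutes apart at 525/598 nm yielded each well's rate.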
gsp agonist: gsp mutant agonism | gsp mutant cells, cAMP HTRF, 30 min; control for the full effect not named in the record | Potency, µM (highest dose often 76.9 µM), inactives show top-dose activation (cAMP increase), most hits filed as activators | actives 0.13% (n = 340,000); active = well fitted activation curve with a large enough effect; inconclusive = small, poorly fitted or top-dose-only effect, or another doubt; inactive = no such curve, though single readings can be large or run the other way; cell line not stated here;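 note: phosphodiesterase inhibitor Ro 20-1724 added with compounds to block cAMP breakdown; potency is the fitted concentration of half-maximal effect; nearly all actives have a fitted effect of over 60% in size; about a fifth of the inactives were tested at one dose only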
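Cells in DMEM/10% FBS with G418 were pretreated with compounds in DMSO plus […] (300 uM stock) for 30 min at 37C. cAMP was measured by HTRF (cAMP-d2 plus anti-cAMP antibody-K) after 30 min at room temperature.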
ClpP mod: qHTS Assay for Activators of ClpP; ATP-dependent Clp protease proteolytic subunit (Bacillus subtilis (strain 168)), P80244; Potency, µM (series often up to 57.5 µM), without a hit: at the highest dose activity change, negative = active; purified B. subtilis ClpP, FRET peptide cleavage, 20 min; actives 1.9% (n = 340,000); active = well fitted falling curve with a large enough effect; inconclusive = small, poorly fitted or top-dose-only effect; inactive = no such curve, though single readings can be large or run the other way; note: potency is the fitted concentration of half-maximal effect; the source files actives as falling curves though it sought activators and does not explain the sign; nearly all actives have a fitted effect of over 65% in size; many hits overshoot -100%
Target sequence (P80244 whole entry, looked up): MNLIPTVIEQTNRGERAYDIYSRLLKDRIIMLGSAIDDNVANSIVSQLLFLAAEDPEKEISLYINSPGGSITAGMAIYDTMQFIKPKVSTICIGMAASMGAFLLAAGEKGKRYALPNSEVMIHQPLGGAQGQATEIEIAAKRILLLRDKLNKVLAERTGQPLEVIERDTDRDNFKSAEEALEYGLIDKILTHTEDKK
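FRET quenching reversal measured ClpP activation: 10 microg/mL B. subtilis ClpP at pH 8 with the FRET-FV decapeptide, read at 430 nm after 320 nm excitation. The 20-min minus 0-min signal was scaled between DMSO/no-enzyme wells and ADEP (5.8 microM final).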
TRPML1 blocker: inhibitors of human TRPML1 channel; Q9GZU1; TRPML1-inducible cells, Ca2+ dye fluorescence, FDSS; stronger effect = lower value; inhibition of EC80 agonist-evoked calcium signal; activity change, negative = inhibition, % (test concentration not listed); actives 0.02% (n = 390,000); AID 624415; in the data active means activity change below about -50%; inconclusive means about -30% to -50%; inactive means above about -30%;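 note: stimulus is agonist 54-4 at its EC80 concentration; % is set by controls: 0 for no effect and ±100 for the full control effect; compound concentration not given in the record; the text of the record puts the active cut at -80%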
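TRPML1-DL cells, Tet-induced overnight (~16 h, 37 °C) at 1,500 cells/well, were loaded with Ca8 no-wash dye plus quencher for 45-90 min at room temperature. Compounds were pinned during FDSS kinetic reading; agonist 54-4 at EC80 (4 uM final) then added.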
* = called active by the depositor; ? = inconclusive; . = not tested or not shown; & = joins results of further samples; [ ] = dose if it differs, or a comment.

SMILES | TRPV1 PAM | Menin MLL FP FL | gsp antagonist | Sfp inh | gsp agonist | ClpP mod | TRPML1 blocker
NC(CO)C12CC3CC(CC(C3)C1)C2 (centres undefined) | 10 | 0.3 | 5% | -1% | 2% | -0.6% | -11
CSc1sc(C(=O)NC(=O)NCc2cccnc2)c(C)c1-c1ccon1 | -8 | -2.3 | -15% | 10% | -1%[15.4 µM] | -0.1% | -2
Cn1c(=NC(=O)C(C)(C)C)sc2cccc(F)c21 | -8 | 0.8 | -5% | 10% | ? | -2.7% | -2
CC(=O)Nc1ccc(NC(=O)COC(=O)C2CCCCC2)cc1 | . | . | 1% | . | 21% | 1.9% | 20
Cc1cc(C)c(S(=O)(=O)N2CCCCC2CCNC(=O)C(=O)NC2CC2)c(C)c1 (centres undefined) | -4 | . | 7% | . | -53%[inhibitor] | -2.8% | 4
NS(=O)(=O)c1cnccc1Nc1ccc(Cl)c(Cl)c1 | -20 | 2.5 | 2% | 11% | -11% | -3.5% | 25
CC(=O)C[C@H](O)CC(=O)[C@H]1OC(=O)CCCCC/C=C/Cc2ccccc21 | . | . | -7% | . | -29% | -4.4% | 13
COC(=O)CN1C(=O)[C@H]2[C@@H](/C=C/c3ccccc3)N3C(=O)CN(Cc4ccccc4)C(=O)[C@@]3(Cc3ccccc3)[C@H]2C1=O | -13 | 5.9 | 4% | 16% | . | 1.3% | -8
CC(=O)Nc1ccc(C=NNc2ccc([N+](=O)[O-])cn2)cc1 | . | . | -8% | . | ? | . | 33
C[n+]1cccc2cccc([O-])c21 | 1 | -27 | -8% | -22% | 22% | -2.9% | -4
O=C(O)C1CC(O)CN1c1nc(Cl)ccc1[N+](=O)[O-] (centres undefined) | 0 | -1.6 | -2% | 18% | ? | . | 6
N=c1c(C(=O)NCC2CCCO2)cc2c(=O)n3ccccc3nc2n1Cc1ccccc1 (centres undefined) | -21 | 0.1 | 9% | 19% | ? | 4.3% | -5
COc1ccccc1CCNC(=O)C(=O)c1cn(CC(=O)N2CCOCC2)c2ccccc12 | 21 | . | -6% | 8% | 17% | -1.8% | 11
Cc1nn(-c2ccc(F)cc2)c(Cl)c1/C=C1\C(=O)Nc2ccccc21 | -5 | . | ? | -11% | 1%[15.4 µM] | . | -3
COc1ccccc1S(=O)(=O)N(C)C[C@H]1Oc2cc(Br)ccc2S(=O)(=O)N([C@@H](C)CO)C[C@H]1C | . | . | . | . | -145% | 1.0% | 3
CCCCn1c(=O)n(C)c(=O)c2c(C(F)(F)F)cc(-c3ccncc3)nc21 | -18 | 4.2 | 13% | -8% | -26% | ? | 18
CCOC(=O)N1CCN(C(=O)c2cn(C)c3ccc(S(=O)(=O)N4CCOCC4)cc3c2=O)CC1 | 6 | . | 2% | 1% | 6% | -2.8% | -5
Cc1ccc(S(=O)(=O)N(CCc2ccccc2)c2ccc3c(c2)C2CC3CCN2C(=O)OCc2ccccc2)cc1 (centres undefined) | . | . | . | . | -4% | -0.8% | -7
COc1ncccc1-c1nnn(-c2ccc(Cl)nc2)n1 | 1 | -3.7 | -3% | 11% | -2% | 0.4% | -12
COc1ccc(/C=C/c2c(-c3ccc(OC)cc3)oc3ccccc23)cc1 | -6 | -5.9 | 13% | -11% | -8% | 4.6% | -14
Cc1ccc(CNC(=O)C2CCCN(c3cnccn3)C2)cc1 (centres undefined) | -7 | -0.8 | 5% | 3% | 38% | -8.5% | -7
O=C(NNC(=O)C1CC(=O)N(c2ccc3c(c2)OCCO3)C1)c1ccc(F)cc1 (centres undefined) | 5 | . | 5% | . | 10% | -2.6% | 2
Cc1ccc(S(=O)(=O)NC(=O)N(CCC#N)Cc2ccccc2)cc1 | 4 | 9.4 | 9% | 16% | -37%[inhibitor] | . | 20
COC(=O)c1cc(C(=O)Nc2ccc(Cl)cn2)cc([N+](=O)[O-])c1 | 7 | 2.5 | -12% | 13% | 8% | . | 14
O=C(O)c1ccccc1S(=O)(=O)c1ccccc1CO | 3 | 1.2 | 6% | 8% | 11% | 0.7% | 17

Following part:
SMILES | TRPV1 PAM | Menin MLL FP FL | gsp antagonist | Sfp inh | gsp agonist | ClpP mod | TRPML1 blocker
O=S(=O)(Nc1cccc(S(=O)(=O)N2CCCC2)c1)c1ccc(Br)cc1 | . | . | . | . | -27% | 1.1% | -4
CCOc1ncccc1C(=O)OCC(=O)c1ccc(C)c(C)c1 | -18 | -1.3 | -3% | 4% | 5%[15.4 µM] | -0.6% | -4
CC(C)(C)[C@H]1COC(=O)CCC/C=C/C[C@H](CC(=O)NCCO)C(=O)N1 | . | . | 1% | . | . | -1.7% | 31
COCCNC(=O)C(c1ccc(F)cc1)N(C(=O)CCC(=O)Nc1ccccn1)c1cccc(C)c1 (centres undefined) | ? | -2.4 | -1% | 4% | 16%[15.4 µM] | . | 13
Cc1nnc(SCC(=O)NC(C)(C)C)n1NCc1ccc(Cl)cc1 | 4 | 0.9 | -36% | 21% | 17%[15.4 µM] | . | 32
CC(=O)Nc1ccc2nc(NC(=O)CS(=O)(=O)c3ccccc3)sc2c1 | -3 | . | -7% | . | -10%[15.4 µM] | -0.1% | -28
COc1ccc(-c2oc(=O)c3cc(OC)c(OC)cc3c2C#C[C@]2(O)CC[C@H]3[C@@H]4CCc5cc(OC)ccc5[C@H]4CC[C@@]32C)cc1 | . | . | 8% | . | . | -24% | 38
CCOC(=O)NC1=NCC(C)S1 (centres undefined) | 14 | 2.4 | 8% | 21% | -4% | 2.6% | 7
CC(C)(C)c1ccc(S(=O)(=O)N2CCN(CCC#N)CC2)cc1 | -8 | 2.7 | 3% | 18% | -38%[inhibitor] | 1.8% | -8
c1ccc(Cn2cc(CN3CCCO3)c(-c3ccc4c(c3)OCO4)n2)cc1 | -1 | -1.3 | -5% | 0% | 8% | -0.2% | -7
Cc1cccc(CCNC(=O)c2cc(S(=O)(=O)N3CCCC3)cn2C)c1 | 0 | -3.4 | -5% | -3% | -48%[inhibitor] | -2.5% | 1
COc1ccc(S(=O)(=O)N2CCN(CCc3ccccc3)CC2)cc1 | 5 | -4.9 | 3% | 10% | 0% | . | 23
CCOc1cc2[nH]c(=O)n(CCCC(=O)N(C)Cc3ccccc3)c(=O)c2cc1OCC | -2 | 1.9 | -14% | 3% | -3%[15.4 µM] | . | 22
CC(C)NC(=O)CN1CCC(O)(c2ccccc2)CC1 | 3 | 2.2 | 2% | -3% | -55%[inhibitor] | 0.3% | 31
CSc1ccc(CCNC(=O)C2CCCN(c3ncnc4c3nc3n4CCCCC3)C2)cc1 (centres undefined) | -26 | 0.8 | -12% | ? | -30% | . | -7
O=C(O)CC/C(=N/Nc1ccc([N+](=O)[O-])cc1)C(=O)O | 0 | 11 | 9% | 9% | -63%[inhibitor] | 0.7% | 20
CCOC(=O)c1[nH]c(C)c(C(=O)c2cc(F)ccc2F)c1C | -15 | -7.6 | 14% | 0% | 12% | -1.3% | -4
CSc1ccc(NC(=O)NN(c2ccccc2)C2CCS(=O)(=O)C2)cc1 (centres undefined) | . | . | . | . | -42%[inhibitor] | -2.0% | -6
CN(C)CCNC(=O)C(C(=O)c1ccc(F)cc1)n1ccccc1=O (centres undefined) | -6 | 2.7 | 5% | 21% | 11% | -2.5% | -6
CCCCN(C)CC(O)Cn1cc(/C=C/C(=O)c2ccc(C)cc2)c2ccccc21 (centres undefined) | -4 | ? | 8% | ? | ? | 1.2%&-7.0% | 10&-7
Cc1ccnc(SCC(=O)c2ccc([N+](=O)[O-])cc2)n1 | -17 | 2.0 | 4% | 45µM* | 0% | 16µM* | 10
O=C(CCSCCC(=O)NN=Cc1cccc(Cl)c1)NN=Cc1cccc(Cl)c1 | . | . | ? | . | 4% | 1.3% | -1
COc1ccc(COC(=O)C2CCN(S(=O)(=O)c3ccc(Cl)cc3)CC2)cc1 | 5 | . | 2% | . | 19%[15.4 µM] | . | 41
CC(=O)N1CCc2cc(S(=O)(=O)N3CCCCCC3)ccc21 | 5 | . | 7% | 12% | 1% | 3.5% | 2
O=C(NCC(c1cccs1)N1CCOCC1)c1cc2ccccc2oc1=O (centres undefined) | . | . | -6% | . | -40%[inhibitor] | -25% | 9
Cc1cc2sc(NC(=O)c3ccco3)nc2cc1Cl | 4 | -2.1 | 6% | 6% | -21% | . | -4
COc1ccc(-c2csc(Nc3ccccn3)n2)cc1 | 4 | -7.0 | -16% | -30% | -3%[15.4 µM] | 0.5% | -28
Cc1cnc(NC(=O)c2ccc(-c3nc4ccccc4s3)o2)s1 | -15 | 1.2 | 1% | -1% | -27% | 18% | -6
Cc1ccc2[nH]c(=O)c(COC(=O)c3ccccn3)cc2c1 | 1 | 9.0 | 6% | 0% | 28% | -5.3% | 37

By substructure: the compounds so far containing an aryl thioether with sulfur outside any ring.
SMILES | TRPV1 PAM | Menin MLL FP FL | gsp antagonist | Sfp inh | gsp agonist | ClpP mod | TRPML1 blocker
CSc1sc(C(=O)NC(=O)NCc2cccnc2)c(C)c1-c1ccon1 | -8 | -2.3 | -15% | 10% | -1%[15.4 µM] | -0.1% | -2
Cc1nnc(SCC(=O)NC(C)(C)C)n1NCc1ccc(Cl)cc1 | 4 | 0.9 | -36% | 21% | 17%[15.4 µM] | . | 32
CSc1ccc(CCNC(=O)C2CCCN(c3ncnc4c3nc3n4CCCCC3)C2)cc1 (centres undefined) | -26 | 0.8 | -12% | ? | -30% | . | -7
CSc1ccc(NC(=O)NN(c2ccccc2)C2CCS(=O)(=O)C2)cc1 (centres undefined) | . | . | . | . | -42%[inhibitor] | -2.0% | -6
Cc1ccnc(SCC(=O)c2ccc([N+](=O)[O-])cc2)n1 | -17 | 2.0 | 4% | 45µM* | 0% | 16µM* | 10

Some of the entries so far, with values under each structure.
Order of values: TRPV1 PAM	Menin MLL FP FL	gsp antagonist	Sfp inh	gsp agonist	ClpP mod	TRPML1 blocker
Cc1cnc(NC(=O)c2ccc(-c3nc4ccccc4s3)o2)s1
  -15	1.2	1%	-1%	-27%	18%	-6
Cc1ccc2[nH]c(=O)c(COC(=O)c3ccccn3)cc2c1
  1	9.0	6%	0%	28%	-5.3%	37
